Assay outcomes (PubChem)
HPGD inh = inhibitors of human 15-hydroxyprostaglandin dehydrogenase (HPGD). P15428. purified HPGD, NADH fluorescence kinetic, PGE2 substrate. Potency, µM, without a hit: top-dose activity change, negative = inhibition, most hits filed as inhibitors. 4.3% of 150,000 active; active = well fitted inhibition curve with a large enough effect (not every such curve was filed as active); inconclusive = small, poorly fitted or top-dose-only effect, or another doubt; inactive = no such curve, though single readings can be large or run the other way;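 further: top concentration of the series not given in the record; plate controls included wells without enzyme; inactives centre near -10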
Target sequence (P15428 whole entry, looked up): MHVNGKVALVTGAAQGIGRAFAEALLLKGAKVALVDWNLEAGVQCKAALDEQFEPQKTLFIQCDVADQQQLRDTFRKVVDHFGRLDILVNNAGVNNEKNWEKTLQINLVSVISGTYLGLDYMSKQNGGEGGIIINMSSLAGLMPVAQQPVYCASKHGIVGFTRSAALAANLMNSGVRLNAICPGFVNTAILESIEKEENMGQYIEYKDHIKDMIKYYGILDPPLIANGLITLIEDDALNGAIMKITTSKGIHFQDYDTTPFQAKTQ
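NADH formation kinetics: reaction with 30 uM PGE2 and 1 mM NAD+ (final), 20 nM enzyme, Tris-HCl pH 8 with Tween 20, after 15 min compound preincubation at room temperature. Fluorescence change, last versus first of five reads.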
Active calls of the source: *. On the % scale 0 is the no-effect control and ±100 the full control effect; potency means the concentration at half of the fitted maximal effect.

`CCSc1nc2c(c(=O)[nH]1)C(c1ccncc1)C(C(=O)OC(C)C)=C(C)N2` (stereo not given) gave HPGD inh 1%.
For Cc1cc(C(=O)NCc2cccnc2)cs1 the results were HPGD inh -3%.
Screening CCOC(=O)/C(C(C)=O)=C1\OC(=O)c2ccccc21 returned HPGD inh 0%.
For COc1ccccc1N(CC(=O)Nc1cccnc1)S(C)(=O)=O the results were HPGD inh -6%.
For N#CC1=C(N)OC2=C(C(=O)CCC2)C1c1ccncc1 (stereo not given) the results were HPGD inh -18%.
CCc1nnc(NC(=O)C2Cc3ccccc3C(=O)O2)s1 (stereo not given) was read as HPGD inh -5%.
For CCCn1c(SCC(=O)Nc2cccc(NC(C)=O)c2)nnc1C(C)C the results were HPGD inh -2%.
For COc1cc(OC)c(-c2nn3c(-c4ccco4)nnc3s2)cc1OC the results were HPGD inh inconclusive.
Screening CC1(C)OC2CC3C4CCC5=CC(=O)CCC5(C)C4(F)C(O)CC3(C)[C@]2(C(=O)CCl)O1 (stereo not given in full) returned HPGD inh -2%.
Screening O=C(CSC1=NC(=O)C(c2ccccc2)C(=O)N1)Nc1cccc(Cl)c1 (stereo not given) returned HPGD inh 0%.
Screening O=C(NCCCN1CCCC1=O)c1cc(NS(=O)(=O)c2ccc(F)cc2)cc(NS(=O)(=O)c2ccc(F)cc2)c1 returned HPGD inh -9%.
CCCn1nc2cc(C(=O)NCc3ccccc3OC)ccc2c1OCC was read as HPGD inh inconclusive.
Cc1ccnc(SCCn2c(N3CCN(Cc4ccccc4)CC3)nc3c2c(=O)[nH]c(=O)n3C)n1 was read as HPGD inh -9%.
Screening C[C@@H](C(=O)NCc1nc2ccccc2[nH]1)[C@@H]1C[C@@]1(C)[C@@H](NC(=O)OCc1ccccc1)c1ccccc1 returned HPGD inh -11%.
COc1ccc(-c2cc(=O)oc3cc(OC(C)C(=O)O)ccc23)cc1 (stereo not given) was read as HPGD inh inconclusive.
For CCCc1nnc(NC(=O)CCCC(=O)O)s1 the results were HPGD inh -3%.
For O=C(O)C(O)Cc1c[nH]c2ccccc12 (stereo not given) the results were HPGD inh -8%.
For CCN(CC)c1ccc(C(=O)OCC(=O)NCC2CCCO2)cc1 (stereo not given) the results were HPGD inh -13%.
Screening COC(=O)/C=C1\N/C(=N\c2nc(C)cc(C)n2)N(c2ccc(C)cc2)C1=O returned HPGD inh -10%.
`O=C(/C=C/c1ccc(OCc2ccccc2)cc1)c1cccs1` gave HPGD inh -5%.
CS(=O)(=O)N1CCN(c2ccccc2NC(=O)c2ccc3ccccc3c2)CC1 was read as HPGD inh -9%.
`O=C(NCc1ccccn1)C1CCN(Cc2cnn(-c3ccccc3)c2-n2cccc2)CC1` gave HPGD inh -14%.
`CC1CCc2c(sc(NC(=O)CN3CCN(C(=O)c4ccco4)CC3)c2C#N)C1` (stereo not given) gave HPGD inh -28%.
`Cc1ccc(C)c(S(=O)(=O)NC(C)C(=O)Nc2ccc(-c3nc4ccccc4s3)cc2)c1` (stereo not given) gave HPGD inh inconclusive.
Screening Cc1ccc(-c2c3c(=O)n(C)c(=O)n(C)c3cn2Cc2ccccn2)cc1 returned HPGD inh -7%.
CCOc1nc(NCCc2ccc(OC)c(OC)c2)nc(N2CCN(c3ccc(OC)cc3)CC2)n1 was read as HPGD inh -9%.
Screening C=CCNC(=O)c1cc(-c2ccccc2O)on1 returned HPGD inh inconclusive.
For Cc1cccc(N(CC(N)=O)S(C)(=O)=O)c1C the results were HPGD inh -6%.
c1cc(CNc2ccc3c(c2)OCCO3)ccn1 was read as HPGD inh -6%.
For CCN(c1ccccc1)S(=O)(=O)c1ccc(NC(=S)NC(=O)c2cccs2)cc1 the results were HPGD inh -21%.
Screening Cc1ccc(-n2c(Cc3ccccc3)n[nH]c2=S)cc1 returned HPGD inh inconclusive.
Screening CCc1n[nH]c(=O)n1Cn1c(CC)n[nH]c1=O returned HPGD inh 4%.
For Nc1cccc2c1C(=O)N(C(=O)c1ccc(S(=O)(=O)N3CCCCCC3)cc1)C2=O the results were HPGD inh inconclusive.
Screening Cc1ccc(NC(=O)C2CCN(C(=O)c3ccccc3C)CC2)cc1 returned HPGD inh -4%.
For O=C(NC1C(=O)NNC1c1ccccc1)c1ccc(F)cc1 (stereo not given) the results were HPGD inh -10%.
CCOc1ccc(C(Nc2ccc(C)cc2)P2(=O)OCCCO2)cc1 (stereo not given) was read as HPGD inh -3%.
Screening O=C(Nc1cccc(S(=O)(=O)c2cccc(NC(=O)C3CC3)c2)c1)C1CC1 returned HPGD inh inconclusive.
`Cc1ccc(-n2c(=O)cc(N3CCN(Cc4ccccc4)CC3)[nH]c2=O)cc1` gave HPGD inh -10%.
Screening S=C1NC2=C(CCC/C2=C\c2ccccc2)C(c2ccccc2)N1 (stereo not given) returned HPGD inh 22µM*.
For CN(C)Cc1ccccc1Sc1ccc(O)cc1O the results were HPGD inh -6%.
For Cc1nnc(SCC(=O)Nc2sc3c(c2C#N)CCCC3)[nH]c1=O the results were HPGD inh -18%.
O=C(NCc1ccccc1)c1ccc(Br)cc1Br was read as HPGD inh 3.5µM*.
Screening CC1=CC(C)(C)N2C(=O)C3(SCC(=O)N3c3ccc(F)cc3)c3cc(C)cc1c32 (stereo not given) returned HPGD inh -2%.
Cc1ccc(/C=C/C(=O)Nc2cc(S(=O)(=O)N3CCCCCC3)ccc2OCC(F)(F)F)o1 was read as HPGD inh -24%.
For Clc1ccc(Cn2cc(/C=N/n3cnnc3)c3ccccc32)cc1 the results were HPGD inh -9%.
Cc1cc(=O)n(CC(C)O)c(O)c1C#N (stereo not given) was read as HPGD inh -32%.
`CCOC(=O)/C(C#N)=C/c1c(Oc2cccc(C)c2)nc2c(C)cccn2c1=O` gave HPGD inh -6%.
`COCc1nc(-c2ccc(-c3ccccc3)nc2OC)no1` gave HPGD inh inconclusive.
C=CCn1c(C)cc(C(=O)COC(=O)C2CC(=O)N(Cc3ccccc3)C2)c1C (stereo not given) was read as HPGD inh 3%.
For COc1ccc(/C=C/C(=O)c2ccc[nH]2)c(OC)c1OC the results were HPGD inh -20%.
`Cc1ccc2c(c1)NC(=O)C(CC(=O)NCCCN1CCCC1=O)O2` (stereo not given) gave HPGD inh -2%.
Screening COc1ccc(N2C(=O)CC(N3CCCC4CCCCC43)C2=O)cc1 (stereo not given) returned HPGD inh -13%.
COc1cccc(-c2nc(CS(=O)(=O)CC(=O)NCCCN3CCc4ccccc4C3)c(C)o2)c1 was read as HPGD inh -9%.
CC1CN(C(=O)Nc2ccccc2)c2ccccc2-[n+]2ccsc21 (stereo not given) was read as HPGD inh -1%.
O=C(CCn1nnc2ccccc2c1=O)N[C@@H](Cc1ccccc1)C(=O)O was read as HPGD inh -8%.
Screening c1ccc(C2=Nn3c(nnc3-c3ccncc3)SC2)cc1 returned HPGD inh -12%.
Screening COc1ccccc1/C=N/NC(=O)c1csc(C)c1C returned HPGD inh -19%.
Screening COc1cccc(NC(=O)CCSc2nnc3scc(-c4ccccc4)n23)c1 returned HPGD inh -13%.
O=C(CC(C(=O)N1CCc2ccccc21)n1ccnc1)NCC1CCCO1 (stereo not given) was read as HPGD inh -2%.
`COc1ccc(CC(=O)NCCc2ccc(S(N)(=O)=O)cc2)cc1` gave HPGD inh -16%.
NC(=S)N/N=C/c1ccc(-c2ccc(Cl)c(Cl)c2)o1 was read as HPGD inh inconclusive.
For CC(C)CCN1C(=O)c2ccc(C(=O)Nc3cccc(S(N)(=O)=O)c3)cc2C1=O the results were HPGD inh -11%.
CCC1Sc2ccccc2N(CC(=O)NCCC2=CCCCC2)C1=O (stereo not given) was read as HPGD inh -19%.
Screening Cc1cccc(C(C)(C)C)c1OCCN1CCCC1 returned HPGD inh -8%.
`C=CCn1c(NC(=O)c2ccc(Br)o2)c(S(=O)(=O)c2ccccc2)c2nc3ccccc3nc21` gave HPGD inh inconclusive.
`O=C(Nc1ccc2c(c1)OCO2)Oc1ccccc1` gave HPGD inh 0%.
For COc1ccc(C(C)=O)cc1COC(=O)CNC(=O)c1ccc(F)cc1 the results were HPGD inh inconclusive.
O=C(C(Cc1ccccc1)NS(=O)(=O)c1cccc2cccnc12)N1CCc2ccccc21 (stereo not given) was read as HPGD inh -4%.
COC(=O)c1ccc2c(=O)n(CCN3CCOCC3)c(SCC(=O)C(C)(C)C)nc2c1 was read as HPGD inh -9%.
Screening CCOc1ccc(Nc2oc(-c3ccco3)nc2C#N)cc1 returned HPGD inh inconclusive.
For COc1ccc(NC(=O)c2ccc(NS(=O)(=O)c3c(C)noc3C)cc2)cc1OC the results were HPGD inh -7%.
`CC(C)(C)n1nnnc1C(c1cccs1)N(Cc1cccnc1)Cc1ccco1` (stereo not given) gave HPGD inh -5%.
For Cc1ccc(Cl)cc1N1CCN(C(=O)CN2C(=O)c3cccc4cccc2c34)CC1 the results were HPGD inh inconclusive.
Screening O=C(COC(=O)CCC(=O)c1cccs1)Nc1cccc(S(=O)(=O)N2CCOCC2)c1 returned HPGD inh -9%.
COc1cc(CC(=O)Nc2ccc(S(=O)(=O)Nc3ncccn3)cc2)cc(OC)c1OC was read as HPGD inh -4%.
Screening Cc1cc(N2CCN(S(=O)(=O)c3ccc(Cl)cc3)CC2)c2ccccc2n1 returned HPGD inh -12%.
CCc1nc(SCC(=O)NCc2ccccc2)c2c(=O)n(C)c(=O)n(C)c2n1 was read as HPGD inh -9%.
COC(=O)c1ccsc1NC(=O)C1=COCCO1 was read as HPGD inh -19%.
CC(C)NC(=O)c1cnc(N2CCN(c3ccccn3)CC2)c2ccccc12 was read as HPGD inh inconclusive.
For NNC(=O)c1ccc(OCc2nc3ccccc3[nH]2)cc1 the results were HPGD inh -14%.
`Cc1ccnc(NS(=O)(=O)c2ccc(N=[N+]=[N-])cc2)n1` gave HPGD inh -4%.
Screening CC1(C)CC(CCNS(=O)(=O)c2ccccc2)(c2ccccc2)CCO1 (stereo not given) returned HPGD inh 1%.
COc1cc(OC)cc(N(C(=O)c2ccco2)C(C(=O)NC2CCCC2)c2ccc(N(C)C)cc2)c1 (stereo not given) was read as HPGD inh 1%.
`S=C(Nc1ccc(Cl)c(Cl)c1)NC1CCN(Cc2ccccc2)CC1` gave HPGD inh -17%.
For Cc1nnc(SCC(=O)Nc2ccccc2N2CCOCC2)s1 the results were HPGD inh -15%.
Screening Cc1nn(-c2ccccc2)c(Cl)c1/C=N/NC(=O)c1ccc(CNc2ccccc2)o1 returned HPGD inh -13%.
CC(=O)Nc1ccc(S(=O)(=O)NC2(C(F)(F)F)N=C(c3ccccc3)NC2=O)cc1 (stereo not given) was read as HPGD inh -4%.
Screening CCCCOc1ccc(-c2nc(SCC(N)=O)n[nH]2)cc1 returned HPGD inh -5%.
COC(=O)[C@H](Cc1ccccc1)NC(=O)Nc1ccc(S(N)(=O)=O)cc1 was read as HPGD inh -1%.
CCSC(=O)N(CC)CC(=O)Nc1c(CC)cccc1CC was read as HPGD inh -6%.
CCOc1ccc(OCC)c(NC(=O)CN2CCN(c3cccc(C)c3)C(C)C2)c1 (stereo not given) was read as HPGD inh -4%.
`CCC(C(=O)O/N=C(\N)c1ccc(C)cc1)c1ccccc1` (stereo not given) gave HPGD inh -1%.
COC(=O)c1ccc(CC(=O)c2ccc(O)cc2O)o1 was read as HPGD inh 32µM*.
COc1ccccc1NC(NC(=O)c1ccccn1)C(Cl)(Cl)Cl (stereo not given) was read as HPGD inh -11%.
Screening CCC(=O)N(Cc1cc2ccccc2[nH]c1=O)C(C)C returned HPGD inh inconclusive.
For O=C1C2C3C=CC(C3)C2C(=O)N1c1ccc2ccccc2n1 (stereo not given) the results were HPGD inh -18%.
Screening Cc1ccc(C(=O)CSc2nnc(-c3ccco3)o2)o1 returned HPGD inh inconclusive.
CN(C)CC(C)(C)CNC(=S)Nc1ccc(S(=O)(=O)N2CCOCC2)cc1 was read as HPGD inh 5%.

Not a retest: an excerpt of the list.
CC(C)NC(=O)c1cnc(N2CCN(c3ccccn3)CC2)c2ccccc12 was read as HPGD inh inconclusive.
For NNC(=O)c1ccc(OCc2nc3ccccc3[nH]2)cc1 the results were HPGD inh -14%.
`Cc1ccnc(NS(=O)(=O)c2ccc(N=[N+]=[N-])cc2)n1` gave HPGD inh -4%.
Screening CC1(C)CC(CCNS(=O)(=O)c2ccccc2)(c2ccccc2)CCO1 (stereo not given) returned HPGD inh 1%.
COc1cc(OC)cc(N(C(=O)c2ccco2)C(C(=O)NC2CCCC2)c2ccc(N(C)C)cc2)c1 (stereo not given) was read as HPGD inh 1%.
`S=C(Nc1ccc(Cl)c(Cl)c1)NC1CCN(Cc2ccccc2)CC1` gave HPGD inh -17%.
For Cc1nnc(SCC(=O)Nc2ccccc2N2CCOCC2)s1 the results were HPGD inh -15%.
Screening Cc1nn(-c2ccccc2)c(Cl)c1/C=N/NC(=O)c1ccc(CNc2ccccc2)o1 returned HPGD inh -13%.
CC(=O)Nc1ccc(S(=O)(=O)NC2(C(F)(F)F)N=C(c3ccccc3)NC2=O)cc1 (stereo not given) was read as HPGD inh -4%.
Screening CCCCOc1ccc(-c2nc(SCC(N)=O)n[nH]2)cc1 returned HPGD inh -5%.
COC(=O)[C@H](Cc1ccccc1)NC(=O)Nc1ccc(S(N)(=O)=O)cc1 was read as HPGD inh -1%.
CCSC(=O)N(CC)CC(=O)Nc1c(CC)cccc1CC was read as HPGD inh -6%.
CCOc1ccc(OCC)c(NC(=O)CN2CCN(c3cccc(C)c3)C(C)C2)c1 (stereo not given) was read as HPGD inh -4%.
`CCC(C(=O)O/N=C(\N)c1ccc(C)cc1)c1ccccc1` (stereo not given) gave HPGD inh -1%.
COC(=O)c1ccc(CC(=O)c2ccc(O)cc2O)o1 was read as HPGD inh 32µM*.
COc1ccccc1NC(NC(=O)c1ccccn1)C(Cl)(Cl)Cl (stereo not given) was read as HPGD inh -11%.
Screening CCC(=O)N(Cc1cc2ccccc2[nH]c1=O)C(C)C returned HPGD inh inconclusive.
For O=C1C2C3C=CC(C3)C2C(=O)N1c1ccc2ccccc2n1 (stereo not given) the results were HPGD inh -18%.

The list is partial; count on the stated rates, not on these rows.
